EPAC2 ant val – Validation qHTS for antagonist of cAMP-regulated guanine nucleotide exchange factor 4 (EPAC2). Rap guanine nucleotide exchange factor 4 (Homo sapiens), Q8WZA2. actives 1.7% (n = 16,000). Potency, µM (doses to about 112 µM), for inactives: at the top dose activity, negative = inhibition, actives largely listed as inhibitors. AID 1645886, 2021. EPAC2 Rap1B BODIPY-GDP exchange, fluorescence; active = well fitted inhibition curve with a large enough effect; inconclusive = small, poorly fitted or top-dose-only effect; inactive = no such curve, though single readings can be large or run the other way;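 also: 100% = activation by cAMP agonist control; nearly all actives have a fitted effect of over 40% in size; the record reuses the description of the EPAC1 agonist screen; inactives centre near -10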
Target sequence (Q8WZA2 whole entry, looked up): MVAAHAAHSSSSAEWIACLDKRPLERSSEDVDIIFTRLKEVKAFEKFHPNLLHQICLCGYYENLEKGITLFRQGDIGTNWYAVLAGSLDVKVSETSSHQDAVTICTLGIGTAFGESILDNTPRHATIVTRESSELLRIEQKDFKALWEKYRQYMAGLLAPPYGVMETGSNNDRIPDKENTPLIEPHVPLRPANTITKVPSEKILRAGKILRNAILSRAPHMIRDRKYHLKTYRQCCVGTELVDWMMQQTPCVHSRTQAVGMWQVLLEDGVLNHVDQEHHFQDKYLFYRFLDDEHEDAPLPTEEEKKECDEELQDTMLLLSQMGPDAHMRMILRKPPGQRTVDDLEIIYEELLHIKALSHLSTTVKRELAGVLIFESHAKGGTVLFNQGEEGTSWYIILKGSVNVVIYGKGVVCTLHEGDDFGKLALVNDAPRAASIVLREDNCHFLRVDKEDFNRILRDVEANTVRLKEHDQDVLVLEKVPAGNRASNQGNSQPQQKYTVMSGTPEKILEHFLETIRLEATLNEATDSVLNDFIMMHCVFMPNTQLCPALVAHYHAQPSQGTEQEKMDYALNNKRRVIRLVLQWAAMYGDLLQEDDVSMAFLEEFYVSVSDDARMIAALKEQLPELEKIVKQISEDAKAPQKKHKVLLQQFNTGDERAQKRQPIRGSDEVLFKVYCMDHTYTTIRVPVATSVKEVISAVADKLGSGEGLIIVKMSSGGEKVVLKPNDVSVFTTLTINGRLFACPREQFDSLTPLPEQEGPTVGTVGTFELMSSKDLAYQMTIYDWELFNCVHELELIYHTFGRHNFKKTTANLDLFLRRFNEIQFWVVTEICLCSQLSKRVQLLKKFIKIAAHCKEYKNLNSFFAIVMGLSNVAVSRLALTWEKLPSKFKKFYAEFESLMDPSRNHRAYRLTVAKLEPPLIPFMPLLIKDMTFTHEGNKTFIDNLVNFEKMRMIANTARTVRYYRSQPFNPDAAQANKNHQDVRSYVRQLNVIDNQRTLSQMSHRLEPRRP
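Fluorescent exchange read-out: 100 nM EPAC2 with 250 nM RAP1B–BODIPY-GDP and 50 uM GDP; BODIPY-GDP release lowers fluorescence. Read at 480/540 nm every 5 min for 30 min at room temperature; normalized to 6.5 mM cAMP.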
* = called active by the depositor; ? = inconclusive; & = joins results of further samples; ! = a repeat was not active; [ ] = remark or other dose. Potency is read from the fitted curve at half-maximal effect. Only part of the results is shown; rates above refer to the full screens.

Start of the data: the first 3 compounds as a preview:
compound,EPAC2 ant val
CC(=O)N1CCC2(CCCN(c3cccc(-c4ccccc4)c3)C2)CC1,45µM*
COC(=O)c1cc(CNC(=O)c2ccc(N(C)C)cc2)cc(NC(=O)c2ccccc2Cl)c1,-23%
C[C@@H](CCc1ccc(O)cc1)NCCc1ccc(O)c(O)c1,-19%

Results, repeating the preview:
compound,EPAC2 ant val
CC(=O)N1CCC2(CCCN(c3cccc(-c4ccccc4)c3)C2)CC1,45µM*
COC(=O)c1cc(CNC(=O)c2ccc(N(C)C)cc2)cc(NC(=O)c2ccccc2Cl)c1,-23%
C[C@@H](CCc1ccc(O)cc1)NCCc1ccc(O)c(O)c1,-19%
COc1ncc2ncc(=O)n(Cc3ccc(F)cc3)c2n1,-18%
O=C(O)c1cc(O)c2c(c1)C(=O)c1cccc(O)c1C2=O,26%
NCCNCCN,20%
Cc1nc(C)c(CC(=O)N2CCOc3ccc(CN4CCOCC4)cc3C2)s1,-16%
CC(=O)c1ccc(-c2ccc3c4c(ccc3c2)OC(CNC(=O)C(C)N2CCOCC2)C4)s1 (stereo not given),-2%
NS(=O)(=O)c1cc2c(cc1C(F)(F)F)NCNS2(=O)=O,-34%[56.6 µM]
CN1CCN(c2ncc3nc(-c4ccc(F)cc4)c(=O)n(C4CC4)c3n2)CC1,-7%
OC(C[n+]1c(Cl)ccc2ccccc21)c1ccccc1 (stereo not given),16%
Cc1cc(O)c(C(C)C)cc1Cl,-9%
COc1cc(C(=O)NCc2ccc(OCCN(C)C)cc2)cc(OC)c1OC,-9%
O=C1[C@H](Cc2ccccc2)NCCCC[C@@H](c2ccc(Cl)cc2)N1Cc1ccc(Cl)cc1,?
Cc1nc2ccccc2nc1CN1CCOc2ccc(C(C)(O)COc3ccccc3)cc2C1 (stereo not given),-26%
CC(=O)Oc1cccc2c1C(=O)c1c(OC(C)=O)cc(C(=O)O)cc1C2=O,-32%
CC1CC[C@@]2(C(=O)O)CC[C@]3(C)C(=CCC4[C@@]5(C)CCC(O)C(C)(C)C5CC[C@@]43C)C2C1C (stereo not given in full),-3%
O[C@@H]([C@H](O)[C@H](O)CBr)[C@H](O)CBr,-14%
CCOC(=O)C[C@H]1c2ccc(C(F)(F)F)cc2S(=O)(=O)N1Cc1ccccc1,?
CN(C)c1ncc2nc(-c3ccc(Cl)cc3)c(=O)n(C)c2n1,-16%
COC(=O)C[C@H]1c2cc(F)cc(F)c2S(=O)(=O)N1C1CCN(Cc2ccccc2)CC1,11%
CC(=O)c1ccc[nH]1,-23%
CC(=O)NC(C(=O)O)C(C)(C)SN=O (stereo not given),-4%
CN(C)c1ncc2nc(-c3ccc(Cl)cc3)c(=O)n(Cc3ccc(F)cc3)c2n1,2%
O=C(O)CCCC[C@@H]1CCSS1,-26%
O=C(Nc1cccc(F)c1)N1CCCC2(CCN(C(=O)c3ccco3)CC2)C1,-17%
COc1ccc2c(c1)CCc1cnc(-n3ncc(C(=O)NC4CCOC4)c3C3CC3)nc1-2 (stereo not given),-30%
COCCn1c(=O)c(-c2ccc(Cl)cc2)nc2cnc(N(C)C)nc21,-25%
O=C1Nc2ccc(Cl)cc2[C@@](C#CC2CC2)(C(F)(F)F)O1,?
Cn1c(=O)c(-c2cccs2)nc2cncnc21,13%
O=C(c1csnn1)N1CCC2(CCCN(C(c3ccccc3)c3ccccc3)C2)CC1,?
Cc1ccccc1-n1cc(CNC(=O)CN2Cc3ccccc3OC(C)C2)cn1 (stereo not given),?
C[C@@H]1CC[C@@]2(OC1)O[C@H]1C[C@H]3[C@@H]4CC[C@H]5C[C@@H](O)CC[C@]5(C)[C@H]4CC(=O)[C@]3(C)[C@H]1[C@@H]2C,5%[56.6 µM]
Cc1ccc(-c2ccnc(-n3ncc(C(=O)N(C)Cc4cccc5ncccc45)c3C3CC3)n2)o1,5%
Cc1ccc2c(c1)C(N1CCN(C)CC1)=Nc1cccnc1N2,-10%
Nc1cccc(/C=C/c2ccnc3ccccc23)c1,?
CC[n+]1c(/C=C/C=C2/N(C)c3ccccc3C2(C)C)sc2ccccc21,100%[activator]
COc1ccc(CNC(=O)C[C@H]2C(=O)N(Cc3ccc(OC)cc3)C[C@@H]2Cc2ccccc2)cc1,?
CNC(=O)[C@@H]1C[C@@H](NCc2cccc(Oc3ccccc3)c2)CN1C(C)C,-15%
CCn1nc(C)cc1C(=O)NCCN1Cc2ccccc2OC(c2ccccc2F)C1 (stereo not given),-9%
CN1CCN(c2ncc3nc(-c4ccc(Cl)cc4)c(=O)n(Cc4ccc(F)cc4)c3n2)CC1,-25%
CCOC(=O)[C@H](CCc1ccccc1)N[C@H]1CCCN2CCC[C@@H](C(=O)O)N2C1=O,18%
Cc1cnc(C)c(-c2cc(F)cc3c2OC(CNC(=O)Cc2ccccc2C)C3)n1 (stereo not given),-9%
COc1cccc(C(=O)NCc2nc(-c3cccc(NC(=O)c4ccoc4C)c3)oc2C)c1OC,-8%
COC(=O)C[C@H]1c2cc(C(F)(F)F)ccc2S(=O)(=O)N1Cc1ccccc1,?
CC[C@]12CCCN3CCc4c(n(c5ccccc45)C(=O)C1)[C@H]32,-24%
Cc1nc2cnc(Nc3ccccc3)nc2n(C2CC2)c1=O,0%
Oc1c(Br)cc(Br)c2cccnc12,-15%
Cc1cc(NS(=O)(=O)c2ccc(N)cc2)no1,-33%&-11%
C[C@@](N)(Cc1ccc(O)cc1)C(=O)O,2%
C[C@@]1(C(=O)O)NCCc2cc(O)c(O)cc21,?
COCC(=O)N1CCC2(CCCN(C(=O)Nc3ccccc3)C2)CC1,-11%
COC(=O)[C@H]1Cc2c([nH]c3ccccc23)CN1C(=O)COc1ccc2c(C)cc(=O)oc2c1,-2%
CN(C)c1ccc(/C=C2/CCCc3c2nc2ccccc2c3C(=O)O)cc1,12%
N#Cc1cccc(-c2nc(N3CCNCC3)c3ccccc3n2)c1,-10%
COC(=O)[C@@H](N)CS,?

(continued)
compound,EPAC2 ant val
CN(C)C(=O)OC1=C(c2ccccc2)Sc2ccccc2-n2cccc21,-50%
Cc1ccc2c(c1)CN(CCNC(=O)c1n[nH]c3c1CCCC3)CC(C)O2 (stereo not given),-8%
Cc1ccc2c(c1)CN(CCNC(=O)c1cc3ccccc3oc1=O)CC(C)O2 (stereo not given),-16%
Cn1cccc1C(=O)N1CCC2(CC1)CN(Cc1cc(C(F)(F)F)cc(C(F)(F)F)c1)C2,?
CCCCCCCCCCCCCCCCCCN(CCCCCCCCCCCCCCCCCC)c1ccc(/C=C/c2ccc(C=O)cc2)cc1,?
Cc1cc(O)c(C)c2c1CC[C@H]1[C@H](C)C(=O)O[C@H]21,-2%
CCOC(=O)O[C@]1(C(=O)OCCl)CC[C@@H]2[C@H]3CCC4=CC(=O)C=C[C@]4(C)[C@@H]3[C@@H](O)C[C@@]21C,-6%
CC(=O)C[C@H]1c2cc(C(F)(F)F)ccc2S(=O)(=O)N1c1ccc(N(C)C)cc1,-8%
O=C(c1cc(C(F)(F)F)cc(C(F)(F)F)c1)N1CCC2(CCCN(c3ccccc3)C2)CC1,?
CCCCN1CC[C@H]2C=CC[C@@H](C(=O)Nc3ccccc3)[C@H]2C1=O,-7%
CC(C)C[C@H](NC(=O)C1OC1C(=O)O)C(=O)NCCCCN=C(N)N (stereo not given in full),-10%
O=C(c1cnn(-c2nccc(-c3ccccc3C(F)(F)F)n2)c1C1CC1)N1CCN(CCO)CC1,-12%
C[N+](C)(C)CC=O,-8%
c1cn(-c2ccnc(-c3ccc4c(c3)OCO4)n2)cn1,-25%
Cl/C(=C\n1cncn1)c1ccc(Cl)cc1Cl,?
CCC(CC)(CC(=O)Nc1cccc(/C=C/c2nc(C3CCC3)cs2)c1)C(=O)O,4%
COc1cccc(Cn2c(=O)c(-c3cn(C)c4ccccc34)nc3cncnc32)c1,-6%
Cc1noc(C)c1C(=O)N1CCC2(CCCN(C(=O)Nc3ccccc3)C2)CC1,-25%
CCOCC(O)COc1ccc(NC(=O)CC[S+](C)C)cc1 (stereo not given),-11%
N#Cc1cccc(NC(=O)N2CC[C@@]3(CCCN(C(=O)c4ccncc4)C3)C2)c1,-22%
O=C1C(O)=C(O)C(=O)C(O)=C1O,-1%
Cc1cc(-c2ccnc(-n3ncc(C(=O)NCc4cccnc4)c3C3CC3)n2)c(C)s1,-4%
CC(C)C(NS(C)(=O)=O)c1nnc2n1CCN(Cc1ccc(Cl)cc1)CC2 (stereo not given),-17%
C=C1C(=O)OC2C1CC/C(C)=C/CCC1(C)OC21 (stereo not given),-17%
Clc1ccccc1-c1ccc2ncnc(NC3CCNCC3)c2c1,-18%
COCCn1c(=O)c(-c2ccc(OC)cc2)nc2cnc(Nc3cccc(OC)c3)nc21,?
COc1ccc(-n2c(=O)c(C)nc3cnc(Oc4cccc(Cl)c4)nc32)cc1,?
Cc1ccccc1-c1cncnc1Nc1ccc(F)cc1,-32%
CC1CC(O)CC(C)(C)C1 (stereo not given),-17%
Clc1ccccc1-c1nc(-n2ccnc2)c2ccccc2n1,?
C[C@H]1O[C@@H](O[C@H]2[C@@H](O)C[C@H](O[C@H]3[C@@H](O)C[C@H](O[C@H]4CC[C@@]5(C)[C@H](CC[C@@H]6[C@@H]5C[C@@H](O)[C@]5(C)[C@@H](C7=CC(=O)OC7)CC[C@]65O)C4)O[C@@H]3C)O[C@@H]2C)C[C@H](O)[C@@H]1O,-12%&20%
N#Cc1cccc(CN2CCC(=O)N([C@H](CO)c3ccccc3)CC2)c1,-2%
C[C@]12CCC3c4ccc(O)cc4CCC3C1CC(O)C2O (stereo not given in full),-10%
c1ccc(CN2CCC3(CCCc4ccccc43)CC2)cc1,-20%
c1cnc2c(c1)ccc1cccnc12,?
O=C(O)Cc1nn(Cc2ccc(Br)cc2F)c(=O)c2ccccc12,?
Cc1nc2cnc(N(C)C)nc2n(-c2ccccc2)c1=O,7%
CCN1CCCC1CNCc1cc2c(OC)c(OC)c(OC)cc2nc1N(C)C (stereo not given),?
COc1cccc(Nc2ncc3nc(-c4ccc(F)cc4)c(=O)n(C[C@H]4CCCO4)c3n2)c1,?
O=[N+]([O-])c1ccc(C=C2c3ccccc3-c3ccccc32)cc1,-34%
COC(=O)C1CCCCN1Cc1ccc2c(c1)CN(C(=O)c1ccc(C)s1)CCO2 (stereo not given),0%
Cc1noc(C)c1-c1cc(N(C)C)ncn1,-12%
CC(=O)Nc1cc(C(=O)N2CCN(c3ccccc3)CC2C)cc2ncn(CCc3ccccn3)c12 (stereo not given),-12%
CC(CCc1ccc(O)cc1)NCC(O)c1ccc(O)cc1 (stereo not given),8%
CCC1CN(CCC(=O)N2CCCN(C(=O)c3ccco3)CC2)Cc2cc(OC)ccc2O1 (stereo not given),6%
O=S1(=O)[C@H]2C[C@@H]3C=C[C@@]2(CN1Cc1cccc(F)c1)O3,-4%
Cn1c(=O)c(-c2ccc(F)cc2)nc2cnc(OCc3ccccc3)nc21,4%
COc1ccc2ccccc2c1CN1CCC2(CCC(CNC(=O)c3ccccc3)O2)CC1 (stereo not given),9%
CCc1cc(C(=O)NCC2Cc3cccc(-c4ccc(C(=O)OC)cn4)c3O2)no1 (stereo not given),-7%
COc1cccc(-c2nc(N(C)Cc3ccco3)c3ccccc3n2)c1,-24%
COc1ccc(C(=O)N2CCC3(CC2)CCN(c2cccc(-c4ccccc4)c2)CC3)cc1,-10%
CCN(CC)CCCCCCCCOC(=O)c1cc(OC)c(OC)c(OC)c1,-28%
N#Cc1ccc(CN2CC[C@@]3(CCCN(S(=O)(=O)c4ccccc4)C3)C2)cc1,?
CN(Cc1ccco1)c1nc(-c2ccoc2)nc2ccccc12,25µM*
CC(C)(C)c1ccc(C(=O)N2CCC3(CC2)CC3C(=O)NCCc2ccccn2)cc1 (stereo not given),-23%
Cc1cc(-c2ccc(N=Nc3ccc4c(S(=O)(=O)O)cc(S(=O)(=O)O)c(N)c4c3O)c(C)c2)ccc1N=Nc1ccc2c(S(=O)(=O)O)cc(S(=O)(=O)O)c(N)c2c1O,32µM*!

Carrying on:
compound,EPAC2 ant val
CN(C)C(=O)c1ccc(-c2ccc3ncnc(N4CCNCC4)c3c2)cc1,-16%
CC(=O)N1CCC2(CCCN(c3ccccc3)C2)CC1,-22%
O=C(Nc1cccc(N2CCC(NCc3cnn(-c4ccccc4)n3)CC2)c1)c1cccnc1,-27%
COc1ccc(/C=C/c2cc(O)cc(O[C@H]3OC(CO)C(O)C(O)C3O)c2)cc1 (stereo not given in full),0%
c1ccc2sc(N3CCN(Cc4ccc5c(c4)OCO5)CC3)nc2c1,-11%&-28%

Shown with each value named: 3 of the compounds above.
SMILES: CC(=O)N1CCC2(CCCN(c3ccccc3)C2)CC1
  EPAC2 ant val = -22%

SMILES: CN(C)C(=O)c1ccc(-c2ccc3ncnc(N4CCNCC4)c3c2)cc1
  EPAC2 ant val = -16%

SMILES: COc1ccc(/C=C/c2cc(O)cc(O[C@H]3OC(CO)C(O)C(O)C3O)c2)cc1 (stereo not given in full)
  EPAC2 ant val = 0%
